Assay outcomes (PubChem)
TRPML1 agonist: agonists of human TRPML1 channel; activation, % (test concentration not listed); Q9GZU1; TRPML1-expressing cells, Ca2+ dye fluorescence, FDSS; host cell line not named in the record; reference of the full effect not given here; 410,000 compounds, 0.12% hits; in the data active = activation above about 50%; inconclusive = about 30% to 50%; inactive = below about 30%; note: 0% is about no effect; the text of the record puts the active cut at 80%
Target sequence (Q9GZU1 whole entry, looked up): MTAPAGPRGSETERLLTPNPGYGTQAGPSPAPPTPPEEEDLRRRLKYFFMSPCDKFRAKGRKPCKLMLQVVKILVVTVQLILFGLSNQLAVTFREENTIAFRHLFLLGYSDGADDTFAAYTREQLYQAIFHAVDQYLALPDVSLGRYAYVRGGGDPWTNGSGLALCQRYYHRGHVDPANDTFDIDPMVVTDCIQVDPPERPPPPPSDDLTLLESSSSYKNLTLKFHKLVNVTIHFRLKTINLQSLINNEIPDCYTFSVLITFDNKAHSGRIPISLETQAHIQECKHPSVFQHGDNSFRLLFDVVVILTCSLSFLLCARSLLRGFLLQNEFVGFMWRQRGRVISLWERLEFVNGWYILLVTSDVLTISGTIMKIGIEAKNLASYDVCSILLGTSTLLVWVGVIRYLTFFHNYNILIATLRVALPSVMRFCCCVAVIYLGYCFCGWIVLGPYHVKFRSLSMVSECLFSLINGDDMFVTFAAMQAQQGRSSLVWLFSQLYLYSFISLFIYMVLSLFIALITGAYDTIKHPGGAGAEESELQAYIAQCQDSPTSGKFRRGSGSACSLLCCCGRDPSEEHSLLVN
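Cells: TRPML1-DL, 1X Tet inducer, ~16 h at 37 degrees C/5% CO2. Dye: ABD Ca8 no-wash + quencher, 45-90 min RT. Read: 10 s baseline, compound add, 110 s agonist phase; 54-4 EC80 (4uM final), 110 s antagonist phase.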
Menin MLL FP FL: menin-MLL binding inhibition, fluorescein peptide; Fluorescence polarization, fluorescein-MLL peptide displacement from menin; 290,000 tested, under 10 active; FP activity change, % at 61.4 µM; inconclusive = falling polarisation curve, or a change in total fluorescence; inactive = total fluorescence flat and polarisation flat or rising; no compound was filed as active; the % refers to the polarisation; negative = inhibition;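 note: % of control where 0% means no effect; inhibitors lower the polarisation; unlabelled MLL peptide was the positive control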
gsp antagonist: gsp mutant antagonism; gsp-mutant cells, cAMP HTRF, 30 min; control for the full effect not named in the record; 340,000 compounds, 0.4% hits; AID 624288; Potency, µM (series often up to 76.9 µM), inactives show at the highest dose activity change, negative = inhibition, most hits filed as inhibitors; active = falling curve of any shape with a large fitted effect; inconclusive = falling curve, mostly with a smaller effect; inactive = flat or rising curve; cell line not stated here;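 note: intracellular cAMP measured with PDE inhibitor Ro 20-1724 present during compound exposure; potency is the fitted concentration of half-maximal effect; % is set by controls: 0 for no effect and ±100 for the full control effect; nearly all actives have a fitted effect of over 65% in size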
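HTRF cAMP read-out (cAMP-d2 plus anti-cAMP antibody-K in lysis buffer, 30 min RT). Before lysis, cells are exposed to compounds with […] for 30 min at 37C in DPBS containing Ca/Mg, BSA and Tween 20.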
ClpP mod: qHTS Assay for Activators of ClpP; purified B. subtilis ClpP, FRET peptide cleavage, 20 min; Potency, µM (doses to about 57.5 µM), inactives show top-dose activity change, negative = active; 340,000 compounds, 1.9% hits; active = well fitted falling curve with a large enough effect; inconclusive = small, poorly fitted or top-dose-only effect; inactive = no such curve, though single readings can be large or run the other way; note: potency is the fitted concentration of half-maximal effect; the source files actives as falling curves though it sought activators and does not explain the sign; nearly all actives have a fitted effect of over 65% in size; many hits overshoot -100%
Target sequence (P80244 whole entry, looked up): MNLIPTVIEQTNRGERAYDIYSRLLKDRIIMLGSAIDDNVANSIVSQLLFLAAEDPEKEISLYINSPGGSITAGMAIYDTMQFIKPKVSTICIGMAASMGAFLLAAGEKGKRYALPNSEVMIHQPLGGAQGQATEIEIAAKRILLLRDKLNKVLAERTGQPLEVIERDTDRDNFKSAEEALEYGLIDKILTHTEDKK
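ClpP 10 microg/mL final, pH 8 Tris/KCl buffer with BSA, glycerol, Tween-20; compound pinned in; FRET-FV substrate; RT 20 min; Ex320/Em430; ΔFRET vs ADEP 5.8 microM, DMSO, no enzyme.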
TRPML1 inh: blocks the human TRPML1 channel | TRPML1-inducible cells, Ca2+ dye fluorescence, FDSS; active compounds read low; inhibition of EC80 agonist-evoked calcium signal | activity change, negative = inhibition, % (test concentration not listed) | 390,000 compounds, 0.02% hits | AID 624415; in the data active means activity change below about -50%; inconclusive means about -30% to -50%; inactive means above about -30%;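 note: stimulus is agonist 54-4 at its EC80 concentration; % is set by controls: 0 for no effect and ±100 for the full control effect; compound concentration not given in the record; the text of the record puts the active cut at -80%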
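Calcium fluorescence in TRPML1-DL cells induced overnight with Tet: a 110 s read after compound pin addition, then a 110 s antagonist read after challenge with 54-4 at 4 uM final (EC80).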
gsp ag: agonists of gsp mutant (McCune-Albright syndrome); gsp mutant cells, cAMP HTRF, 30 min; control for the full effect not named in the record; Potency, µM (top dose mostly 76.9 µM), without a hit: at the top dose activation (cAMP increase), usual class: activators; 340,000 compounds, 0.13% hits; AID 624287; active = well fitted activation curve with a large enough effect; inconclusive = small, poorly fitted or top-dose-only effect, or another doubt; inactive = no such curve, though single readings can be large or run the other way; cell line not stated here;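 note: phosphodiesterase inhibitor Ro 20-1724 added with compounds to block cAMP breakdown; potency is the fitted concentration of half-maximal effect; nearly all actives have a fitted effect of over 60% in size; about a fifth of the inactives were tested at one dose only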
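Cells in DMEM/10% FBS with G418 were pretreated with compounds in DMSO plus […] (300 uM stock) for 30 min at 37C. cAMP was measured by HTRF (cAMP-d2 plus anti-cAMP antibody-K) after 30 min at room temperature.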
* marks the source's active call; other numbers are inactive results; ? = inconclusive; nt = no result given; & = joins results of further samples; [ ] = dose if it differs, or a comment.

Order of results – TRPML1 agonist	Menin MLL FP FL	gsp antagonist	ClpP mod	TRPML1 inh	gsp ag
1) Cc1cccc(C(=O)NNC(=S)NC(=O)c2cccs2)c1
 : 66*	-0.6	3%	-4.9%	2	-32%[15.4 µM]
2) O=C(COc1ccc(Cl)cc1)NCC(=O)N/N=C/c1cccs1
 : 1.0	2.2	0%	-1.5%	-8	-66%[inhibitor]
3) CCOC(=O)N1CCN(C(=O)C(CC)c2ccccc2)CC1 (stereo not drawn)
 : 0.2	7.6	9%	0.2%	-5	?
4) Cc1nc(NC(=O)c2ccccc2)sc1-c1csc(NCc2ccccc2)n1
 : -0.8	5.7	-3%	-0.2%	-2	?
5) CSCCC(=O)N(C)CC1CCN(CCc2cccc(C(F)(F)F)c2)CC1
 : nt	4.5	4%	0.1%	nt	-5%
6) Cc1nc2cc(C(=O)OCC(=O)NC(C)C(C)C)ccc2n1-c1ccccc1 (stereo not drawn)
 : -0.9	3.6	-15%	-5.4%	-21	-8%
7) Cc1cc(F)c(F)c(C(=O)N2CCCCC2C)c1Cl (stereo not drawn)
 : -0.5	0.0	1%	nt	6	9%[15.4 µM]
8) CCOC(=O)c1sc(NC(=O)c2ccco2)nc1C
 : -0.9	-2.1	5%	?	67	-13%
9) COC(=O)C1=C(CS(=O)(=O)c2ccc(OC)c(OC)c2)NC(=O)NC1c1ccc(O)c(OC)c1 (stereo not drawn)
 : -0.7	-3.7	13%	nt	3	-8%
10) COc1ccccc1[C@@H]1C(c2cccc(C)c2)=NN(c2ccccc2)[C@H]1C(=O)N1CCOC1=O
 : 0.0	6.6&1.7	-6%	4.1%	52	27%
11) Cc1cc(C)c(C(=O)N2CCCC(C(=O)c3cc(F)ccc3F)C2)o1 (stereo not drawn)
 : -1.5	2.5	-10%	-1.9%	-8	-16%
12) COc1ccccc1CN1CCN(Cc2nc(Cc3ccccc3)no2)CC1
 : -0.3	-2.1	1%	nt	2	-5%[15.4 µM]
13) CC1CCc2c(nc3ncnn3c2Nc2ccc(OC(F)(F)F)cc2)C1 (stereo not drawn)
 : 0.9	1.9	-2%	-1.8%	39	-53%[inhibitor]
14) CSc1ccc(Nc2nn(-c3ccc(OC(F)(F)F)cc3)nc2C(C)=O)cc1
 : -0.5	nt	nt	-30%	14	nt
15) CCN(CC)c1ccc(C(=S)NCc2ccccc2)cc1
 : -0.6	-1.5	6%	0.1%	29	4%
16) O=C(Nc1ccc(Cl)cc1F)c1ccccc1Br
 : 0.3	-0.1	7%	-2.5%	13	13%
17) CCn1c(=O)c(C(=O)CN2CCc3ccccc32)c(N)n(Cc2ccccc2)c1=O
 : -0.3	0.1	-3%	nt	-7	-8%[15.4 µM]
18) CC(=O)NC(CC(=O)OCC(=O)c1ccc(NC(=O)CC(C)C)cc1)c1ccccc1 (stereo not drawn)
 : 0.6	nt	-2%	1.7%	-5	?
19) CNC(=O)CSc1nnc(-c2ccncc2)n1Cc1ccccc1
 : -0.9	-0.4	-1%	-3.2%	-10	-23%
20) CCOC(=O)N1CCN(C(=O)c2c(O)c3cccc4c3n(c2=O)CC4)CC1
 : 0.7	-0.2	1%	-7.6%	-6	-2%
21) CCOc1ccc2nc(SCC3CC3(Cl)Cl)[nH]c2c1 (stereo not drawn)
 : 1.7	2.5	6%	0.6%	8	-3%[15.4 µM]
22) CCN1CCN(CCNC(=O)c2ccc(/C=C3/Sc4ccccc4N(Cc4ccccc4C)C3=O)cc2)CC1
 : nt	5.2	4%	-2.5%	nt	20%
23) COc1ccc(NC(=O)Cn2c(SCc3ccc(C)cc3)nc3cccnc32)cc1OC
 : 0.5	nt	nt	68%	13	nt
24) O=C(Cc1ccccc1)Nc1cccc(C(=O)O)c1O
 : 1.2	-2.2	9%	nt	-13	-6%[15.4 µM]
25) CC(NC(=O)c1cc(Br)cs1)C1CCCO1 (stereo not drawn)
 : 0.0	-1.5	2%	3.4%	-4	-2%[15.4 µM]
26) CC(=O)N1CCc2cc3nc(C)cc(C)c3cc21
 : -0.4	1.9	2%	25µM*	-6	-22%
27) Cc1ccc(S(=O)(=O)NCC(=O)N2CCCC2)cc1
 : 0.4	0.6	11%	-0.2%	2	10%
28) Cc1cccn2c(=O)c3cc(C(=O)NCc4cccnc4)c(=N)n(CC4CCCO4)c3nc12 (stereo not drawn)
 : -0.1	nt	8%	nt	0	45%[15.4 µM]
29) COc1cc2[nH]c(C(=O)N3CCN(c4ccccc4F)CC3)cc2c(OC)c1OC
 : 0.0	-0.7	-9%	0.4%	7	-27%
30) COc1ccc(CCNC(=O)CCS(=O)(=O)c2cc3c(cc2Cl)NC(=O)CO3)cc1OC
 : 1.3	nt	nt	0.4%	-21	nt
31) O=C(NC(=S)NCc1ccccc1)c1ccccc1[N+](=O)[O-]
 : -0.3	0.5	-2%	nt	1	23%
32) O=C(NCc1ccccc1)Nc1cccn(Cc2cccc(F)c2)c1=O
 : 2.5	5.6	6%	35µM*	5	-69%[inhibitor]
33) Cc1ccc(CNC(=O)c2ccc3c(c2)c(C)c(C)n3Cc2ccc(Cl)cc2)o1
 : 1.5	nt	nt	?	-17	nt
34) CN1CCN(c2ccccc2NC(=O)c2ccc(-c3cccc(Cl)c3)o2)CC1
 : -0.6	nt	20%	-3.5%	-14	-2%[15.4 µM]
35) CCN(CC)CCn1c2ccccc2c(=O)c2c(O)ccc(O)c21
 : 1.8	nt	-19%	-2.5%	-12	-5%
36) C=C(C)c1cccc(C(C)(C)NC(=O)N(C)C2CCN(C)CC2)c1
 : -0.2	-0.6	11%	nt	-17	-3%[15.4 µM]
37) Cc1ccc(/C=N/OC(=O)c2c(C)noc2-c2snnc2C)cc1
 : -0.9	3.3	8%	nt	2	?
38) Cc1ccc(S(=O)(=O)n2nc(C)c(S(=O)(=O)N3CCOCC3)c2C)cc1
 : -0.6	1.3	3%	0.6%	-1	-62%[inhibitor]
39) O=C(NCC(c1cccnc1)N1CCOCC1)c1ccc2c(c1)OCO2 (stereo not drawn)
 : -0.5	0.0	2%	-3.1%	-8	20%
40) Cc1ccccc1Nc1nc(N)nc(CSc2nnc(-c3ccccc3)n2C)n1
 : 0.4	2.8	4%	-1.2%	47	5%[15.4 µM]
41) Cc1ccc(S(=O)(=O)Nc2c3ccccc3nc(=O)n2-c2ccccc2)cc1
 : 3.7	-2.1	?	-19%	0	7%
42) COc1cc(C(=O)NCC(=O)OC(C)C(=O)Nc2ncc(Cl)cc2Cl)cc(OC)c1OC (stereo not drawn)
 : -0.4	3.4	2%	nt	17	22%[15.4 µM]
43) O=C(O)c1ccc(N/N=C/c2c(F)cccc2Cl)cc1
 : -0.5	-3.3	-14%	1.6%	3	3%
44) Cc1ccc2cc3cc(C(=O)NCCCN4CCCC4=O)oc3nc2c1
 : -0.6	3.6	-1%	3.6%	9	?
45) CNC(=O)COC(=O)c1ccc([N+](=O)[O-])cc1Cl
 : 1.1	1.3	13%	nt	-12	-2%[15.4 µM]
46) Cc1ccc(N(CC(=O)N/N=C/c2ccc(OC3CSC3)cc2)S(=O)(=O)c2ccccc2)c(C)c1
 : -0.1	-0.4	0%	-7.3%	10	2%[15.4 µM]
47) CC(=O)Nc1cc(C(=O)OC(C(=O)c2ccccc2)c2ccccc2)ccc1C (stereo not drawn)
 : 3.1	-0.7	-29%	-3.8%	-4	-1%
48) COc1cc(/C=N/NC(=O)c2nc3ccccn3c2C)cc(OC)c1O
 : -0.9	30[activator]	-4%	nt	-2	-11%[15.4 µM]
49) CCOP(=O)(OCC)/C(=N/OC(=O)c1ccc(OC)cc1)C(N)=O
 : 0.4	-1.6	18%	nt	-12	-22%[15.4 µM]
50) COc1ccc(/C=N/NC(=O)c2ccc3c(c2)NC(=O)C(C)(C)O3)cc1OC
 : 0.1	-5.7	14%	nt	-11	0%
51) CSCCC(NC(=O)c1cccc(C)c1)C(=O)O (stereo not drawn)
 : 0.1	-1.0	9%	0.8%	-11	21%
52) Cc1cccc2c1N(CCOc1ccccc1Cl)C(=O)C2=O
 : 5.4	5.9	10%	2.3%	26	22%
53) COc1ccc(CCNC(=O)c2ccc(Cn3c(SCc4ccccc4)nc4cccnc43)cc2)cc1
 : 0.1	nt	nt	32µM*	2	nt
54) Cc1ccc(C)c(NC(=O)CN(C)C(=O)COc2ncnc3sccc23)c1
 : 0.9	9.0	1%	1.7%	0	-5%
55) COc1ccc2cc(S(=O)(=O)n3cnc(C)c3)ccc2c1
 : 1.6	4.6	5%	nt	15	-4%
56) COC(=O)c1nn(-c2ccccc2)c(Cl)c1/C=N/O
 : -0.3	0.0	-3%	0.3%	-1	-24%
57) Cc1ccc(-c2nnc(CCC(=O)NCC3C4CC5CC(C4)CC3C5)o2)s1 (stereo not drawn)
 : -0.4	-1.8	-5%	nt	33	17%
58) O=C(Cn1cnc2cc([N+](=O)[O-])ccc2c1=O)NCCc1ccc(F)cc1
 : 0.1	1.1	4%	nt	-8	9%
59) CCOC(=O)c1c(C)[nH]c(C)c1S(=O)(=O)N1CCC(C(=O)NCc2ccccc2)CC1
 : -0.4	nt	nt	-0.9%	12	nt
60) O=C(Nc1ncccc1O)c1ccc(S(=O)(=O)N2CCCCCC2)cc1
 : -0.6	nt	-14%	-0.6%	-1	10%

Reprinted at random: 5 compounds from above
Order of results – TRPML1 agonist	Menin MLL FP FL	gsp antagonist	ClpP mod	TRPML1 inh	gsp ag
37) Cc1ccc(/C=N/OC(=O)c2c(C)noc2-c2snnc2C)cc1
 : -0.9	3.3	8%	nt	2	?
43) O=C(O)c1ccc(N/N=C/c2c(F)cccc2Cl)cc1
 : -0.5	-3.3	-14%	1.6%	3	3%
47) CC(=O)Nc1cc(C(=O)OC(C(=O)c2ccccc2)c2ccccc2)ccc1C (stereo not drawn)
 : 3.1	-0.7	-29%	-3.8%	-4	-1%
33) Cc1ccc(CNC(=O)c2ccc3c(c2)c(C)c(C)n3Cc2ccc(Cl)cc2)o1
 : 1.5	nt	nt	?	-17	nt
52) Cc1cccc2c1N(CCOc1ccccc1Cl)C(=O)C2=O
 : 5.4	5.9	10%	2.3%	26	22%
